TRPML1 inh = human mucolipin-1 channel inhibition; Q9GZU1; TRPML1-inducible cells, Ca2+ dye fluorescence, FDSS; stronger effect = lower value; inhibition of EC80 agonist-evoked calcium signal; activity change, negative = inhibition, % (concentration not given with the values); actives 0.02% (n = 390,000); AID 624415; in the data active means activity change below about -50%; inconclusive means about -30% to -50%; inactive means above about -30%;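 also: stimulus is agonist 54-4 at its EC80 concentration; % is scaled to controls: 0 for no effect and ±100 for the full control effect; compound concentration not given in the record; the text of the record puts the active cut at -80%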
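Calcium fluorescence in TRPML1-DL cells induced overnight with Tet: a 110 s read after compound pin addition, then a 110 s antagonist read after challenge with 54-4 at 4 uM final (EC80).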
Menin MLL FP FL = inhibitors of human menin-MLL interaction, wild-type MLL peptide; Fluorescence polarization, fluorescein-MLL peptide displacement from menin; FP activity change, % at 61.4 µM; AID 1766; 290,000 tested, under 10 active; inconclusive = falling polarisation curve, or a change in total fluorescence; inactive = total fluorescence flat and polarisation flat or rising; no compound was filed as active; the % refers to the polarisation; negative = inhibition;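 also: % of control where 0% means no effect; inhibitors lower the polarisation; unlabelled MLL peptide was the positive control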
Sfp inh = blocks B. subtilis Sfp PPTase activity; actives 3.5% (n = 310,000); Q9F4F7; Potency, µM, for inactives: max response, negative = inhibition, usual class: inhibitors; Biochemical Sfp PPTase activity, qHTS; active = well fitted inhibition curve with a large enough effect; inconclusive = small, poorly fitted or top-dose-only effect, or another doubt; inactive = no such curve, though single readings can be large or run the other way;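 also: the enzyme is Sfp with the accession as filed and its product quenches rhodamine fluorescence; potency is read from the fitted curve at half-maximal effect; 0% = enzyme reaction without inhibitor and -100% = no enzyme wells; top concentration of the series not given in the record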
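With Hepes-Na pH 7.6 buffer containing 10 mM MgCl2, Sfp (15 nM) modified BHQ-2-YbbR (12.5 uM) using rhodamine-CoA (5 uM). Two reads 30 minutes apart at 525/598 nm yielded each well's rate.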
ClpP mod = qHTS Assay for Activators of ClpP | ATP-dependent Clp protease proteolytic subunit (Bacillus subtilis (strain 168)), P80244 | purified B. subtilis ClpP, FRET peptide cleavage, 20 min | Potency, µM (doses to about 57.5 µM), for inactives: top-dose activity change, negative = active | actives 1.9% (n = 340,000) | AID 651965, 2013; active = well fitted falling curve with a large enough effect; inconclusive = small, poorly fitted or top-dose-only effect; inactive = no such curve, though single readings can be large or run the other way; also: potency is read from the fitted curve at half-maximal effect; the source files actives as falling curves though it sought activators and does not explain the sign; nearly all actives have a fitted effect of over 65% in size; many hits overshoot -100%
Target sequence (P80244 whole entry, looked up): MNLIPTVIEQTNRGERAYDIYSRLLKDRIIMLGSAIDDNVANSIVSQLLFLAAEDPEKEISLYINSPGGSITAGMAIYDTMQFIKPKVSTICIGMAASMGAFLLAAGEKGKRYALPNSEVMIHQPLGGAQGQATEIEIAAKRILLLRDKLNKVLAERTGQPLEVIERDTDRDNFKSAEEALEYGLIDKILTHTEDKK
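ClpP 10 microg/mL final, pH 8 Tris/KCl buffer with BSA, glycerol, Tween-20; compound pinned in; FRET-FV substrate; RT 20 min; Ex320/Em430; ΔFRET vs ADEP 5.8 microM, DMSO, no enzyme.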
TRPML1 ag = agonists of human TRPML1 channel. Q9GZU1. AID 624414. activation, % (concentration not given with the values). actives 0.12% (n = 410,000). TRPML1-expressing cells, Ca2+ dye fluorescence, FDSS; host cell line not named in the record; reference of the full effect not given here; in the data active = activation above about 50%; inconclusive = about 30% to 50%; inactive = below about 30%; also: 0% is about no effect; the text of the record puts the active cut at 80%
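Tet-induced TRPML1-DL cells, 1,500 per well, cultured overnight, were loaded with a no-wash Ca2+ dye for 45–90 min. Calcium fluorescence was recorded on the FDSS for 110 s after compound addition, before the EC80 agonist (4 uM 54-4) was added.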
TRPV1 potentiator = human TRPV1 potentiation; TRPV1-expressing cells, Fluo-8 calcium influx, capsaicin EC20 potentiation; host cell line not named in the record; control for the full effect not named in the record; potentiation, % at 8.33 µM; AID 540277; actives 0.02% (n = 320,000); active means potentiation above 80%; inconclusive means 30% to 80%; inactive means below 30%; also: 0% is about no effect
Target sequence (Q8NER1 whole entry, looked up): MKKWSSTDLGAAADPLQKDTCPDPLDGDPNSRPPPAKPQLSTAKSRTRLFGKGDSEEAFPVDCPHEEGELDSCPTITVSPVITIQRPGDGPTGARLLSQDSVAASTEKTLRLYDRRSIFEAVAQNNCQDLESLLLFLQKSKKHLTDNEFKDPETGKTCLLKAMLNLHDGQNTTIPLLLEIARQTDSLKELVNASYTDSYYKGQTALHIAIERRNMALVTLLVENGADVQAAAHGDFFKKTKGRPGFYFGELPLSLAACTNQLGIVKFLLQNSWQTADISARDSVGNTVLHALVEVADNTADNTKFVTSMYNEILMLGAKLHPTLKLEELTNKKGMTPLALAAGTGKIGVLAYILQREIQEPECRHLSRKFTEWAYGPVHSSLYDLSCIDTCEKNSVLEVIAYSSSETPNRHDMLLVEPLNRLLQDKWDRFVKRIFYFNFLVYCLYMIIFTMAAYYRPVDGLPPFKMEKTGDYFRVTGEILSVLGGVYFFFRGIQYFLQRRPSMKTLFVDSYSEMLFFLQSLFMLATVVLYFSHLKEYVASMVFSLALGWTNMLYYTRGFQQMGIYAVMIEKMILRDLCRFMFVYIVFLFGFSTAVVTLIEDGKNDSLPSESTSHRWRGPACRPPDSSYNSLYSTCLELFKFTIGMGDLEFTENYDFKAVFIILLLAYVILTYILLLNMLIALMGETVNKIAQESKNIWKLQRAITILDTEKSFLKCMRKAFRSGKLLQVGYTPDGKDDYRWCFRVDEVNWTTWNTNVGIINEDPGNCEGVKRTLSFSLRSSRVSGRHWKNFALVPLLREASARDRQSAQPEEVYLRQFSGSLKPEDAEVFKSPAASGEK
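TRPV1-expressing cells were cultured overnight at 35.5C and loaded with Fluo-8 calcium dye for 40 to 90 min at room temperature. After a 10 s baseline, compound was added and calcium influx was read kinetically for 3 min (ex 480/em 520 nm).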
PINK1 expr mod = PINK1 expression modulation. PINK1 immunofluorescence, high-content cytometry, 24 h. Potency, µM (series often up to 76.6 µM), for the others: top-dose activation (PINK1 increase), hits mostly activators. actives 0.2% (n = 410,000); active = well fitted activation curve with a large enough effect; inconclusive = small, poorly fitted or top-dose-only effect; inactive = flat fitted curve, though single readings scatter; cell line not stated here;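 also: potency is read from the fitted curve at half-maximal effect; % of control where 0% means no effect; nearly all actives have a fitted effect of over 65% in size; a mitochondrial uncoupler was the plate control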
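Stable cell line, 250 cells/well, 12 h attachment; compounds pinned at 5 concentrations, 24 h; CCCP control. Fixed with nuclear dye, primary antibodies 12 h at 10 degrees C, secondary plus cell stain; laser-scanning cytometer read.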
An asterisk follows results filed as active; ? = inconclusive; · = not tested or not shown; [ ] = remark or other dose. Compounds as they come, and some 4.4% of all compounds hit somewhere here.

Start of the data: the first five compounds, to show the layout:
SMILES	TRPML1 inh	Menin MLL FP FL	Sfp inh	ClpP mod	TRPML1 ag	TRPV1 potentiator	PINK1 expr mod
CC(C)(C)NC(=O)C(c1ccc(-c2ccccc2)cc1)N(C[C@H]1CC[C@@H]([C@@H]2CC[C@H](CO)O2)O1)C(=O)c1ccc(C(C)(C)C)cc1 (stereo not given in full)	51.3	·	·	0.8%	1.0	·	0.6%
NC(=NCc1ccccc1)c1cccc([N+](=O)[O-])c1	10.1	-4.0	9.8%	·	0.7	-11.3	2.5%
COC(=O)c1ccc(NC(=S)Nc2ccc3ccccc3c2)cc1	-6.6	0.5	-14.9%	-25.8%	-0.1	-24.2	9.1%
CC1CCCCC12NC(=O)N(CC(=O)N1CCN(S(=O)(=O)c3ccc(Cl)s3)CC1)C2=O (stereo not given)	17.9	·	·	-1.6%	-0.4	·	0.8%
CN(C)c1ccc(C(=S)N2CCCCC2)cc1Br	46.4	2.3	2.9%	·	1.4	-13.6	3.5%

The listing, previewed entries included:
SMILES	TRPML1 inh	Menin MLL FP FL	Sfp inh	ClpP mod	TRPML1 ag	TRPV1 potentiator	PINK1 expr mod
CC(C)(C)NC(=O)C(c1ccc(-c2ccccc2)cc1)N(C[C@H]1CC[C@@H]([C@@H]2CC[C@H](CO)O2)O1)C(=O)c1ccc(C(C)(C)C)cc1 (stereo not given in full)	51.3	·	·	0.8%	1.0	·	0.6%
NC(=NCc1ccccc1)c1cccc([N+](=O)[O-])c1	10.1	-4.0	9.8%	·	0.7	-11.3	2.5%
COC(=O)c1ccc(NC(=S)Nc2ccc3ccccc3c2)cc1	-6.6	0.5	-14.9%	-25.8%	-0.1	-24.2	9.1%
CC1CCCCC12NC(=O)N(CC(=O)N1CCN(S(=O)(=O)c3ccc(Cl)s3)CC1)C2=O (stereo not given)	17.9	·	·	-1.6%	-0.4	·	0.8%
CN(C)c1ccc(C(=S)N2CCCCC2)cc1Br	46.4	2.3	2.9%	·	1.4	-13.6	3.5%
COc1ccc(NC(=O)Nc2ccc3c(c2)CC(=O)N([C@H](C)CO)C[C@H](C)[C@H](CN(C)Cc2ccc(C(=O)O)cc2)O3)cc1	4.9	·	·	1.8%	-0.5	·	1.6%
O=C(OCc1cn([C@@H]2C[C@H](c3ccc(Cl)cc3)N(C(=O)c3cccs3)C[C@H]2O)nn1)c1ccccc1	6.8	·	·	-1.2%	1.5	·	3.4%
N#Cc1ccc(Oc2nc(C#N)cc(-c3ccccc3)n2)cc1	21.4	4.0	39.8µM*	47.8%	4.5	-5.3	4.0%
CCCCn1c(N)c(N(Cc2ccccc2)C(=O)COc2ccccc2F)c(=O)[nH]c1=O	11.1	·	·	-2.2%	0.2	-0.8	-3.6%
O=C1OCC(CO)(CO)N=C1NNc1ccccc1Cl	12.6	-1.7	-18.3%	0.2%	0.3	?	-3.0%[38.3 µM]
CCOC(=O)c1ccc(Cl)c(NC(=O)c2cccnc2)c1	·	2.4	4.0%	·	·	-2.3	·
O=C(NCc1ccc2c(c1)OCO2)C1CCN(S(=O)(=O)c2cccc3nsnc23)CC1	-7.8	5.2	13.8%	0.0%	0.6	?	17.9%
Cc1cccnc1NC(=O)c1ccc2c(c1)OCO2	-17.6	·	·	-2.4%	-0.1	-8.0	-0.7%
Cc1cc(NC(=O)Nc2ccccc2)n(C(C)(C)C)n1	12.2	-1.0	4.2%	-0.2%	0.7	8.7	-2.4%
COc1ccc(CCNC(=O)CCn2c(=O)c3ccccc3n(Cc3cc(C)ccc3C)c2=O)cc1OC	12.0	·	·	-5.6%	0.3	·	0.9%
COCCn1c(SCC(=O)N2CC(C)OC(C)C2)nc2c([nH]c3ccccc32)c1=O (stereo not given)	6.5	1.4	-8.9%	-13.7%	-0.7	-5.2	0.4%
COc1ccc(CCCNC(=O)C2(C)Cc3c(-c4ccc(NC(C)=O)cc4)ccnc3O2)cc1 (stereo not given)	·	·	·	4.3%	-0.9	·	2.6%
O=C(NC1CCS(=O)(=O)C1)c1ccccc1C(=O)c1ccccc1 (stereo not given)	-0.8	2.6	5.6%	2.2%	-0.7	-5.3	1.8%[38.3 µM]
COC(=O)CN(CCc1ccccc1)S(=O)(=O)c1ccc(OC)c(OC)c1	3.9	1.1	12.9%	-0.1%	0.6	3.2	-0.2%
Cc1[nH]c(=O)[nH]c(=O)c1S(=O)(=O)Nc1ccc(F)cc1F	-17.4	-13.3	9.1%	0.2%	1.0	1.4	-3.0%
Cc1ccccc1S(=O)(=O)NCc1cccnc1	12.4	-1.2	18.0%	0.4%	-0.2	-0.8	1.4%
Cc1sc2nc(N)sc2c1C	?	-1.3	-11.7%	0.6%	1.0	5.3	8.3%
COc1ccc(CC(=O)NCCc2csc(-c3cccc(C)c3)n2)cc1	3.7	·	·	-4.2%	3.7	·	0.7%
NC(=O)COC(=O)c1cccc(S(=O)(=O)N2CCN(c3ccc(F)cc3)CC2)c1	-1.1	-2.3	17.1%	·	-0.1	-9.4	4.4%
COc1ccc(OC)c(CNC(=O)C2CCN(S(=O)(=O)c3cn(C)cn3)CC2)c1	-9.2	·	·	2.5%	0.5	·	-0.3%
COc1ccc(C(=O)OCC(=O)NC(=O)Nc2ccccc2F)c(OC)c1	-9.7	·	·	-5.4%	1.0	·	9.8%
COc1ccccc1C(=O)NCCC(=O)NCc1cccs1	0.7	·	·	·	1.4	5.3	-3.4%
CCCC(=O)NNC(=O)c1c(O)c2ccccc2[nH]c1=O	6.9	0.9	11.4%	·	-0.7	15.9	6.1%
CC(Oc1ccccc1F)C(=O)NC1CCS(=O)(=O)C1 (stereo not given)	10.1	-2.3	8.1%	-1.9%	0.5	-7.0	0.1%
CCCC(=O)C1=C(O)C(C(=O)OC)C(C)(C)CC1=NCCCCCC(=O)O (stereo not given)	0.0	-1.1	9.0%	-1.1%	-0.9	-4.0	-0.5%
O=C(NC1CC1)C1=C[C@@H](c2ccc(C(F)(F)F)cc2)C[C@@H](OCCCCO)O1	-20.4	·	·	-2.0%	-0.2	·	-0.3%
COc1cccc(/C=C/c2cnc3ccccc3n2)c1OC	·	·	·	-17.5%	-0.3	·	1.3%
COc1ccc(S(=O)(=O)N(CC(=O)NC2CC2)Cc2ccccc2)cc1	-16.3	-0.2	11.7%	·	1.5	1.7	0.5%
S=c1[nH]nc(COc2ccccc2)n1/N=C/c1ccc(Br)s1	21.8	0.5	-10.6%	-2.1%	1.0	-13.6	1.9%
O=C(COC(=O)C1CCN(S(=O)(=O)c2cccs2)CC1)c1ccc2c(c1)OCCO2	3.7	-2.4	-0.5%	-1.4%	-0.4	6.6	0.4%
Cc1ccccc1NC(=O)CSc1cn(CC(=O)N2CCCCCC2)c2ccccc12	-8.0	·	·	1.8%	0.8	·	2.8%
CCOc1ccc(NS(=O)(=O)c2cc(C(=O)NCCCN3CCCC3=O)ccc2C)cc1	4.1	·	·	-2.1%	-0.9	-9.8	12.6%
Clc1cccc(Cl)c1Cn1cc(Br)cn1	0.4	3.6	8.3%	-2.3%	2.0	19.8	2.0%[38.3 µM]
CCN(CC)S(=O)(=O)c1ccc(Cl)c(C(=O)Nc2cc(C)nn2-c2ccccc2C(F)(F)F)c1	·	10.7	7.6%	·	·	2.7	·
O=C(NCCc1cccc(Cl)c1)c1ccc2c(c1)OCO2	-1.3	0.1	5.1%	-4.0%	-0.4	-13.1	-0.5%
COC(=O)CCC(=O)N1CCCC(CO)(Cc2ccccc2)C1 (stereo not given)	13.7	-1.6	6.1%	-0.5%	0.6	-1.7	0.2%
COc1ccc(NC(=O)CN2C(=O)CSC(C)C2=O)cc1 (stereo not given)	-12.2	?	23.1%	-21.4%	-0.4	4.9	0.9%
CCN(CC)c1ccc(/C=N/Nc2nc(C)cc(C)n2)cc1	-14.2	-0.4	16.7%	·	2.2	3.3	-0.4%
Cc1ccc(OCCSc2cc(C)nc(N)n2)cc1	-16.3	-0.5	6.4%	-3.2%	1.2	26.1	0.9%
COc1ccccc1NC(=O)NNC(=O)COc1ccc2ccccc2c1	13.6	·	9.4%	-1.2%	1.1	20.0	3.4%
CC(C)NC(=O)COc1ccc(Cl)cc1Cl	3.3	0.5	15.8%	2.2%	-0.2	-6.8	-4.5%[38.3 µM]
O=C(NCc1ccccc1)C(c1ccc(F)cc1)N(Cc1ccco1)C(=O)c1ccccn1 (stereo not given)	10.7	3.2	-1.6%	0.6%	0.4	3.7	7.9%
N#Cc1ccc(C(=O)CSc2n[nH]c(=O)n2Cc2ccco2)cc1	-4.8	1.9	-5.8%	28.2µM*	-0.6	-4.8	-0.8%
O=C(NCCN1CCCCCC1)C1CCC(CNS(=O)(=O)c2cccc3cccnc23)CC1 (stereo not given)	9.8	-1.5	6.8%	0.7%	0.2	-1.4	0.0%
COc1ccc(CCNc2nc(-c3cccnc3)cs2)cc1OC	6.4	-0.7	-7.5%	-1.4%	0.4	-6.2	-0.1%

Two of the compounds above, as labelled records:
Molecule: N#Cc1ccc(Oc2nc(C#N)cc(-c3ccccc3)n2)cc1
  TRPML1 inh = 21.4
  Menin MLL FP FL = 4.0
  Sfp inh = 39.8µM*
  ClpP mod = 47.8%
  TRPML1 ag = 4.5
  TRPV1 potentiator = -5.3
  PINK1 expr mod = 4.0%
Molecule: CCCCn1c(N)c(N(Cc2ccccc2)C(=O)COc2ccccc2F)c(=O)[nH]c1=O
  TRPML1 inh = 11.1
  Menin MLL FP FL = ·
  Sfp inh = ·
  ClpP mod = -2.2%
  TRPML1 ag = 0.2
  TRPV1 potentiator = -0.8
  PINK1 expr mod = -3.6%

More entries follow.
SMILES	TRPML1 inh	Menin MLL FP FL	Sfp inh	ClpP mod	TRPML1 ag	TRPV1 potentiator	PINK1 expr mod
CCOC(=O)c1cc(NC(=O)c2ccc(F)cc2)c(=O)n2c1oc1ccc(Cl)cc12	8.1	·	·	0.6%	4.1	·	3.2%
CCCSc1nc(N)c2c3c(sc2n1)CN(C)CC3	-9.5	2.7	3.0%	?	0.6	14.4	4.3%
O=C1c2ccccc2N2C(=O)c3ccccc3C2N1Cc1ccccc1 (stereo not given)	·	2.5	?	-13.0%	·	-2.3	-0.7%
O=C(COC(=O)C1(c2ccc(F)cc2)CCCC1)N1CCc2ccccc21	-7.8	3.2	27.9%	-2.7%	4.9	2.7	4.3%
Cc1cc(Br)ccc1OCCCCNC(C)(C)C	6.5	2.4	-24.4%	0.6%	5.9	-19.4	2.4%

Screening results as filed in PubChem BioAssay.
